# Screens as filed in PubChem BioAssay.
# Sa RN4220 lethal – S. aureus RN4220 growth inhibition | OD600, 16 h | inhibition, % (concentration not given with the values) | 0.33% of 330,000 active | AID 1259311;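 active = z-score of -3 or lower and OD600 up to 0.18 on both plates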;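 note: plate controls were untreated cells for no effect and reference antibiotic for full effect; stock transfer was 100 nL into about 80 µL; one replicate is shown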
# Mtb hypoxia rep – reduces hypoxia-regulated biosensor signal in M. tuberculosis; 0.1% of 300,000 active; M. tuberculosis hypoxia-regulated fluorescent reporter, fluorescence; fluorescence inhibition, % (test concentration not listed);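 active = 35 to 45% if threefold the growth effect, above 45% if 1.5-fold the growth effect; inactive = the rest, general growth blockers included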;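 note: wells of about 50 µL received 100 nL stock; 0% = vehicle wells and 100% = reference inhibitor wells; whole bacteria with a GFP reporter of the hypoxia response; strong numbers were not always called active; many hits fall short of the cut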
# PrP 5UTR inh – suppresses PrP 5' UTR mRNA reporter expression. cell-based PrP 5' UTR mRNA reporter, plate reader. AID 488862. 0.35% of 340,000 active. inhibition, % (test concentration not listed);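 active = every replicate at 50% or more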;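 note: 0 = median of the neutral control wells; tested in H4 reporter cells; numbers are from one replicate; inactives centre near -14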
# BJeLR lethal – kills HRASV12-expressing BJeLR cells. BJeLR (HRASV12) viability, CellTiter-Glo ATP luminescence, 48 h; reference of the scale not given here. inhibition, % (test concentration not listed). 0.17% of 300,000 active. AID 1554;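 active = replicate mean above 50%; inconclusive = above 50% but judged a plate artefact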;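 note: 50 nL library stock added to about 25 µL; numbers are from one replicate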
# Sa ugtP lethal – growth inhibition of S. aureus ugtP deletion strain | S. aureus RN4220 ugtP deletion, OD600 growth, 16 h; some inactives read as strong as hits | growth inhibition, % (test concentration not listed) | 0.54% of 330,000 active | AID 1259309;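 active = z-score under -3 and OD600 up to 0.15 on both plates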;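 note: plate controls were untreated wells for no effect and antibiotic for full effect; wells of about 80 µL received 100 nL stock; the first replicate is given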
# Bead autofluor – compound fluorescence in toxin protease inhibitor counterscreen. compound autofluorescence counterscreen, microsphere flow cytometry; stronger effect = higher value. fluorescence intensity (test concentration not listed). 3.1% of 360,000 active. AID 624483;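 active = at least 3 SD above the mean of all compounds, about 16000 in these data; inconclusive = too few beads counted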;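 note: 100 nL of 1 mM stock went into each well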
# Mtb hypoxia rep growth – further read-out of Mtb hypoxia rep, marked with its call; growth inhibition, %; measured here: M. tuberculosis growth (absorbance);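 0% = vehicle and 100% = reference antibiotic; read after six days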
# * = called active by the depositor; ? = inconclusive; . = no result given.
SMILES,Sa RN4220 lethal,Mtb hypoxia rep,Mtb hypoxia rep growth,PrP 5UTR inh,BJeLR lethal,Sa ugtP lethal,Bead autofluor
Cc1ccc(C=c2sc3n(c2=O)CN(c2ccc(Br)cc2)CN=3)o1,5.9,10,3,.,.,-1,.
Cc1ccc(C(=O)COC(=O)C2CC(=O)N(c3nc(-c4ccccc4)cs3)C2)cc1 (configuration not stated),0.0,6,-2,-13,13,4,?
COc1ccccc1NC(=O)OCC#CCOC(=O)Nc1ccccc1OC,-0.2,8,-8,-7,-14,17,3181
COc1cc(-c2nc3ccccn3c2/N=C/c2cc(OC)c(OC)c(OC)c2)ccc1O,.,.,.,-14,1,.,6231
O=C1c2oc3ccccc3c(=O)c2C(c2cccnc2)N1Cc1ccco1 (configuration not stated),2.3,4,8,-17,7,-3,4042
COc1ccc(C)cc1NC(=O)CN1CCN(c2ccccc2F)CC1,2.7,.,.,8,.,-8,3947
Cc1cc(C)cc(OCC(=O)N(Cc2ccco2)c2c(N)n(Cc3ccccc3)c(=O)[nH]c2=O)c1,0.7,0,-2,-12,.,3,.
NC(=O)c1c(NC(NC(=O)c2ccco2)C(=O)c2ccc(Cl)cc2)sc2c1CCCC2 (configuration not stated),3.3,0,7,-19,2,-14,6747
COc1ccccc1N1CCN(C(=O)C2CCN(C(=O)c3ccccc3Cl)CC2)CC1,-0.2,-2,5,-8,-5,1,4781
CCC1(CC)N([O-])C(C)=C(c2ccccc2)[N+]1=O,2.2,.,.,-16,-4,1,2956
CC1(C)CC(=O)N(c2ccc(Cl)c(Cl)c2)C(=O)C1,4.1,5,7,25,-2,6,3564
Cc1ccc(-c2nnc(-c3cc(C)on3)o2)cc1,12,4,6,-33,4,2,6332
Cn1c(=O)[nH]c(=O)c2c1nc(Br)n2Cc1ccccc1F,1.4,.,.,-13,-8,0,2267
CCN(CC)C(=O)CCSc1nnc(-c2ccncc2)o1,2.5,10,2,3,-11,-1,2606
CCOC(=O)N1CCN(C(=O)CCCn2c(=S)[nH]c3ccsc3c2=O)CC1,1.3,21,17,-23,-4,6,4324
O=C(NCc1ccccc1)C(c1ccc(F)cc1)N(Cc1cccs1)C(=O)c1cnccn1 (configuration not stated),1.7,8,-1,-15,-1,-1,2043
CN1C2C=C(N(C(=O)c3ccc(Cl)cc3)c3ccccc3)CC1CC2 (configuration not stated),2.1,.,.,-13,6,16,2604
Cc1cc(C)c(C)c(OCC(=O)N2CCOCC2)c1,2.0,6,8,-7,0,1,3026
COc1ccc(OC)c(N2C(N)=C(C#N)C(c3ccc(OC)c(O)c3)C3=C2CC(C)(C)CC3=O)c1 (configuration not stated),5.1,14,0,.,-7,7,.
CCOC(=O)CN1C(=O)CN(c2ccc(C)cc2)C1=O,-2.7,5,1,-38,-4,-9,2603
CCCn1nc(C(=O)Nc2ccc(S(=O)(=O)Nc3nccs3)cc2)c2ccccc2c1=O,8.6,9,8,-19,-10,3,3469
COc1cc(OC)cc(C(=O)Nc2ccc(S(=O)(=O)Nc3ncccn3)cc2)c1,2.9,21,16,-34,8,5,3259
O=S(=O)(c1ccc(Cl)cc1)N1c2ccccc2Oc2nc3ccccc3nc21,1.1,.,.,-16,-7,4,5559
Cn1c(-c2c(N)n(C3CCCC3)c3nc4ccccc4nc23)nc2ccccc21,-4.3,-2,14,-25,-6,-9,8609
CC(C)(C)N(Cc1ccccc1)C(=O)c1cccs1,5.4,9,16,-33,-6,13,3498
CCOC(=O)c1[nH]c2ccccc2c1NC(=O)NC(C)C,1.8,5,-3,-21,5,9,.
O=C(CSc1nc2[nH]ncc2c(=O)[nH]1)c1ccccc1,6.3,5,0,-23,2,1,1919
CCOC(=O)C1CCN(S(=O)(=O)c2ccc(CC)cc2)CC1,3.8,6,2,-5,-6,8,9202
Cc1ccc(NC(=O)c2cccc(S(=O)(=O)N3CCN(C)CC3)c2)cc1F,-3.3,5,-2,-13,-10,3,5011
O=C(NCC1CCCO1)c1cnn2c(C(F)F)cc(C3CC3)nc12 (configuration not stated),2.0,-15,0,4,-6,0,6485
COc1cc(OC)c(OC)cc1/C=N/n1c(C)nnc1C,.,.,.,-18,-7,.,3330
O=C(c1ccco1)N1CCN(CCOc2ccc(F)cc2)CC1,-0.7,-7,17,-22,1,-1,4399
Cn1ccnc1SCC(=O)c1ccc(Cl)cc1,-3.4,13,7,-30,6,6,4479
CC(=O)N1C(c2ccccc2O)C[C@]2(C)CC(=O)NC12 (some centres not stated),2.0,7,16,-11,-4,-6,3442
O=C(CSc1nnnn1Cc1ccccc1)Nc1ccccc1,-2.7,-21,-1,1,-13,-12,4985
COc1ccc(CNn2c(C)nc3ccccc3c2=O)cc1,-0.3,9,0,-11,4,5,8885
Cn1c(/C=C(\C#N)C(N)=S)ccc1-c1ccc(Br)cc1,3.3,17,5,-19,.,0,4648
Cc1nc2c(C)cccn2c1/C(O)=C1\C(=O)C(=O)N(CCN(C)C)C1c1ccco1 (configuration not stated),0.8,4,-3,4,1,5,4251
O=C(O)C1C2CCC(C2)C1C(=O)NCCc1ccc(F)cc1 (configuration not stated),1.6,-3,8,1,-2,2,3985
CC(C)c1ccc(N(C(=O)c2csnn2)C(C(=O)NC2CCCC2)c2ccncc2)cc1 (configuration not stated),0.0,0,0,-41,4,7,4099
Cc1cc(C(=O)N2CCCC(N3CCN(c4ccccc4C)CC3)C2)n(C)n1 (configuration not stated),5.1,-2,3,-16,-1,-4,5043
CCOC(=O)CCCNC(=O)CCNC(=O)c1ccc(OC(C)C)cc1,1.1,0,15,-15,12,8,11147
COC(=O)/C(=C/c1ccc2c(c1)c1ccccc1n2C)NC(=O)c1ccccc1,3.5,-22,-20,-11,5,6,2640
CSc1ccccc1OCc1cc(C(=O)N(Cc2nccn2C)C(C)C)no1,2.9,-6,3,-28,-1,4,4626
COc1ccc2cc(CN(Cc3ccco3)Cc3nnnn3C3CCCCC3)c(=O)[nH]c2c1,7.0,9,6,-12,2,-7,8740
CS(C)(=O)=NS(=O)(=O)c1ccc(Cl)cc1,2.4,-1,-7,1,-14,4,4203
COc1ccc(N(C(=O)Cn2nnc(-c3ccc(F)cc3)n2)C(C)C(=O)NC2CCCC2)cc1OC (configuration not stated),4.2,1,1,-9,-3,1,5756
CC(=O)NCC(c1cccs1)S(=O)(=O)c1ccc(F)cc1 (configuration not stated),1.1,-1,4,-7,-5,0,6189
O=C1OCCN1C(=O)[C@H]1[C@H](c2ccc([N+](=O)[O-])cc2)C(c2ccccc2)=NN1c1ccc(Br)cc1,-0.6,0,-6,-14,.,-2,3320
CCc1cccc(NS(=O)(=O)c2ccc3c(c2)n(C)c(=O)n3C)c1,2.7,8,3,-16,-2,16,4023
CCc1ccc(-c2nc(SCC(=O)N(CC)C3CCS(=O)(=O)C3)n[nH]2)cc1 (configuration not stated),1.7,10,5,-17,-2,3,5841
O=C1C2C(C(=O)N1N=Cc1ccc(N3CCCCC3)o1)C1C=CC2C12CC2 (configuration not stated),5.0,8,1,.,.,-4,.
COc1ccc(CN2CCCCC2c2cccnc2)cc1C (configuration not stated),3.3,10,-1,-42,7,8,4154
Cc1ccc(-c2csc(NC(=O)c3ccc(Br)cc3)c2C(=O)O)cc1,.,.,.,-31,7,.,3797
Cc1ccc(-n2c(=O)c3c4c(sc3n(Cc3cc(=O)n5ccccc5n3)c2=O)CCC4)cc1C,-0.2,3,4,0,-15,9,2187
CC(/C=C/c1ccc2c(c1)OCO2)=NNC(=O)CNc1ccc(C)cc1,4.1,7,8,.,.,0,.
O=C(NCc1ccc(F)cc1)N1CCN(S(=O)(=O)c2ccccc2F)CC1,-1.5,2,9,-20,8,12,3663
Cc1ccccc1S(=O)(=O)Nc1nc2ccccc2nc1N1CCc2ccccc2C1,9.9,7,-1,-45,-3,-13,11155
Cc1cc(Cl)ccc1OCCNC(=S)NC(=O)c1cccnc1,-0.5,0,2,4,1,-8,5347
O=C(NNc1nc2c(F)cccc2s1)C1=COCCO1,6.5,5,10,-11,5,1,4385

# Copied from the list.
# In Bead autofluor, `CN1C2C=C(N(C(=O)c3ccc(Cl)cc3)c3ccccc3)CC1CC2` (configuration not stated) is entered as 2604
# In Mtb hypoxia rep, `NC(=O)c1c(NC(NC(=O)c2ccco2)C(=O)c2ccc(Cl)cc2)sc2c1CCCC2` (configuration not stated) is entered as 0
# In Sa RN4220 lethal, `CCOC(=O)CCCNC(=O)CCNC(=O)c1ccc(OC(C)C)cc1` is entered as 1.1
# In PrP 5UTR inh, `CCc1ccc(-c2nc(SCC(=O)N(CC)C3CCS(=O)(=O)C3)n[nH]2)cc1` (configuration not stated) is entered as -17
# In BJeLR lethal, `CC(C)c1ccc(N(C(=O)c2csnn2)C(C(=O)NC2CCCC2)c2ccncc2)cc1` (configuration not stated) is entered as 4

# Later entries.
SMILES,Sa RN4220 lethal,Mtb hypoxia rep,Mtb hypoxia rep growth,PrP 5UTR inh,BJeLR lethal,Sa ugtP lethal,Bead autofluor
COc1cc(/C=N/Nc2ccc(Cl)c(C(=O)O)c2)ccc1OC(=O)c1ccco1,.,.,.,-2,-1,.,4318
CCNc1nc(Cl)nc(NC(C)C)n1,2.7,6,5,14,4,4,2175
O=C(Nc1ccccc1)c1ccc(S(=O)(=O)N2CCCCC2)cc1,5.2,-1,5,-29,4,-7,5334
Cc1ccc(C)c(S(=O)(=O)N(C)Cc2cccs2)c1,4.5,16,4,-3,.,2,3124
CCSc1n[nH]c2nc3c(c(=O)n12)C1(CCCC1)Cc1ccccc1-3,17,.,.,-95,2,28,3233
O=C(CC1SC(=Nc2ccccc2)N(CCO)C1=O)Nc1ccccc1 (configuration not stated),5.1,6,3,11,0,8,3376
NC(=O)c1ccc([N+](=O)[O-])cc1SCc1ccccc1,-11,17,16,-18,-7,-5,3439
O=C(c1cccc(F)c1)n1nnc2ccccc21,7.1,3,2,-8,1,2,3586
CCC(C)Sc1ccc(C2N[C@@](CC(C)C)(C(=O)OC)C3C(=O)N(CC)C(=O)C23)cc1 (some centres not stated),3.2,6,5,.,.,2,.
CCC(CC)C(=O)c1c[nH]c(C(=O)NCc2ccncc2)c1,-2.1,-1,2,-6,-14,0,3402
Fc1ccccc1-c1[nH]ncc1-c1nnnn1-c1ccccc1,7.0,6,-7,-14,7,-5,.
CCCc1c(C(=O)NN=Cc2cccs2)nnn1-c1nonc1N,0.3,-4,-4,.,.,1,.
CC(=NNc1ccc([N+](=O)[O-])cc1)c1ccc(C#N)cc1,2.5,18,3,.,.,1,.
CCN(CC(=O)Nc1ccc(NC(C)=O)cc1)C(=O)CN1C(=O)C2CCCCC2C1=O (configuration not stated),-1.9,-3,-6,4,.,-1,2579
CCCn1c(=O)c2ccccc2n2c(SCC(=O)NCc3cccs3)nnc12,6.0,4,6,-21,4,5,3805
COc1ccc(CN2CCC(Oc3ccc(C(=O)N4CCCCC4)cc3)CC2)cc1C,-5.2,-7,-3,-10,12,-1,4341
Cc1cc2c(cc1C)-c1nnc(-c3ccc4ccccc4n3)n1C(C)(C)C2,1.9,.,.,.,1,5,.
O=c1[nH]c(CN2CCN(c3ccccc3O)CC2)nc2scc(-c3ccccc3Cl)c12,1.6,-2,3,-4,4,0,4674
CCOC(=O)C(CC)n1cnc2c(nnn2-c2ccc(F)cc2)c1=O (configuration not stated),-5.6,-6,-4,-29,5,-6,5940
C=CCn1cc(C(=O)OCC)c(=O)c2cc(F)c(F)cc21,4.8,5,17,.,-9,0,5695
C(=NN(c1ccccc1)c1ccccc1)c1ccc(N2CCOCC2)s1,3.2,12,7,.,.,-1,.
Clc1ccc(-c2onc3c2CCCC3)cc1,14,20,9,-20,1,15,4384
COc1ccc2nc3cc(Cl)ccc3c(Nc3cc(C(C)C)c(O)cc3C)c2c1,53,-3,-3,-27,14,11,2861
CC1(C)COC(c2ccccc2Cl)OC1,4.0,19,11,-19,.,-4,3504
O=C(NCc1cccnc1)c1ccc(-c2cc(Cl)ccc2Cl)o1,15,16,6,-21,-6,-11,2667
CCOC(=O)N1CCN(Cc2oc(CO)cc(=O)c2O)CC1,-10.0,11,3,-32,-3,3,2556

# Random excerpt: 2 compounds from above.
SMILES,Sa RN4220 lethal,Mtb hypoxia rep,Mtb hypoxia rep growth,PrP 5UTR inh,BJeLR lethal,Sa ugtP lethal,Bead autofluor
C(=NN(c1ccccc1)c1ccccc1)c1ccc(N2CCOCC2)s1,3.2,12,7,.,.,-1,.
CC1(C)COC(c2ccccc2Cl)OC1,4.0,19,11,-19,.,-4,3504
